FGF22 binding: shifts melting point of recombinant human FGF22; Q9HCT0; recombinant FGF22 thermal shift, SYPRO orange fluorescence; percent of sucrose octasulfate shift, DMSO zero; calls only at 9.99 µM; 340,000 compounds, 1.5% hits; AID 651658;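 active = melting point raised past a set limit in the mean and every replicate; inconclusive = no clear call; three in four hits are not shown here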
Target sequence (Q9HCT0 whole entry, looked up): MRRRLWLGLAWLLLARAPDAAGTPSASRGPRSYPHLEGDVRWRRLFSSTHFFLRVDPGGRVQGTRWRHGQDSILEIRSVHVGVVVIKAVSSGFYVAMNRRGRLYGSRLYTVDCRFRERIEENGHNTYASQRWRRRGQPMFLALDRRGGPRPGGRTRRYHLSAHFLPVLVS
Ecoli rRNA inh: selective bacterial rRNA inhibition in E. coli; E. coli WT GFP vs humanized-ribosome RFP mutants, fluorescence, 24 h; stronger effect = lower value; DMSO median 0, no signal -100; GFP signal change (wild-type ribosome), % (concentration not given with the values); 350,000 compounds, 1.6% hits; AID 720706;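 active = significant combined selectivity score with lowered wild-type GFP, culture density cut under 30%, mutant RFP and density less affected; inactive = any of these conditions unmet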; also: one replicate is shown; some compounds called inactive have numbers as strong as hits
Ecoli growth: inhibitors of Escherichia coli growth | OD600, 23 h; stronger effect = lower value | OD600 absorbance (test concentration not listed) | 330,000 compounds, 0.21% hits | AID 1053175;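 active = OD600 absorbance below the run mean of sample wells minus 3.6 SD, in any replicate, cut at about 0.56 in these data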;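 also: stock transfer was 300 nL into about 60 µL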
AF4-AF9 inh: blocks AF4 peptide binding to human AF9 | P42568 | AlphaScreen, biotin-AF4 peptide binding to FLAG-AF9 | inhibition, % at 10 µM | 350,000 compounds, 0.47% hits | AID 651704;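 active = every replicate reaching a set inhibition limit, whatever the replicate mean, cut at about 25% in these data; inconclusive = mean inhibition reaches that limit but some replicates miss it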;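 also: 0% = plate neutral control median and 100% = total signal loss; the record names both 10 and 1 µM as test concentration; the first replicate is given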
Target sequence (P42568 whole entry, looked up): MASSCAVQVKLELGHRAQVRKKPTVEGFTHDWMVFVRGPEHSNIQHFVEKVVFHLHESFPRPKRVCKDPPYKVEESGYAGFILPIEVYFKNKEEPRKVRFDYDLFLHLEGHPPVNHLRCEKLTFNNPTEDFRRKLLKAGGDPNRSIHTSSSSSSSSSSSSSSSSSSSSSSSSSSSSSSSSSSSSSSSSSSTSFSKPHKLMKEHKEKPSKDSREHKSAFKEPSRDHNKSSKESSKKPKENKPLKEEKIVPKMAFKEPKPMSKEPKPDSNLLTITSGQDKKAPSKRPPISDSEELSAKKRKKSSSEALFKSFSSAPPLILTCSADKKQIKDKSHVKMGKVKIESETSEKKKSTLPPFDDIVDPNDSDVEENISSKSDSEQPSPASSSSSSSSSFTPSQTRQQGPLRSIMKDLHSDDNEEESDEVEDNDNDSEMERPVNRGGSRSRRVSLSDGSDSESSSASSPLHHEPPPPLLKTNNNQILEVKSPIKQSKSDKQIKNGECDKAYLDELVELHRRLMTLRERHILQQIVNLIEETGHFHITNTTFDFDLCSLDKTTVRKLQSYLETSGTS
HNF4A DNA FP: change in binding of human HNF4 alpha to DNA; 360,000 compounds, 0.3% hits; HNF4a-FITC DNA binding, fluorescence polarization, 1 h; activity change, % at 10 µM; P41235; in the data active = activity change above about 30%, passing the limit was not always enough;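 also: controls were the assay level and a saturating level of protein; the project sought stronger binding though the title names inhibitors; some compounds called inactive have numbers as strong as hits; positive values seem to mean higher polarization but the record does not say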
Vif A3G: inhibitors of Vif binding to APOBEC3G peptide, primary screen, biochemical, TR-FRET, GST-Vif 1-94, biotin-A3G peptide, dose response retest (AID 1117319). TR-FRET GST-Vif / biotin-A3G peptide binding; higher % means a stronger effect; test concentration not given here; strong numbers were not always called active. inhibition, %; hits with a dose series show IC50 in µM. 260,000 compounds, 0.57% hits;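 active = above the screen mean plus three standard deviations and confirmed in dose response; inconclusive = results disagree or hit not tested in dose response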;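 also: Vif residues 1-94 fused to GST binding biotinylated APOBEC3G peptide 110-148; 0% = full assay without inhibitor and 100% = GST in place of GST-Vif; retest series ran down from 100 µM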
ALR H2O2 inh: inhibitors of human sulfhydryl oxidase ALR; P55789; purified ALR, DTT oxidation, H2O2 HRP-luminol luminescence; inhibition, % (no concentration beside the values); 290,000 compounds, 3.8% hits; AID 485317;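 active = mean and each replicate at 75% or more; inconclusive = only one of the two met; inactive = neither met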;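 also: stock transfer was 7.5 nL into about 7.5 µL; 0% = neutral wells and 100% = wells with inactivated enzyme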
Target sequence (P55789 whole entry, looked up): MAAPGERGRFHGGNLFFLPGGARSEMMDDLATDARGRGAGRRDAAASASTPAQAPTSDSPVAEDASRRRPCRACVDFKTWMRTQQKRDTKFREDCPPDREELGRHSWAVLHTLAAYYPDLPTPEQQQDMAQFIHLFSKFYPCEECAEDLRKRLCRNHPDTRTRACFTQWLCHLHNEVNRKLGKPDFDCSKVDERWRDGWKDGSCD
Ecoli rRNA inh OD600: further read-out of Ecoli rRNA inh, marked with its call; OD600 change, %; measured here: OD600 growth;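 optical density of the mix in the first replicate; 0 = DMSO median and -100 = no signal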
Ecoli rRNA inh RFP: second read-out of Ecoli rRNA inh, no call of its own (marks repeat the call); RFP signal change, %; measured here: RFP humanized mutant strains;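 first replicate; 0 = DMSO median and -100 = no signal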
* hit, by the source's call; i = inactive; ? = inconclusive; / = no result given; & = joins results of further samples.

SMILES	FGF22 binding	Ecoli rRNA inh	Ecoli rRNA inh OD600	Ecoli rRNA inh RFP	Ecoli growth	AF4-AF9 inh	HNF4A DNA FP	Vif A3G	ALR H2O2 inh
FCCN(CCF)c1cccc(Cl)c1	i	9.8	9.1	0.7	0.667	-4.0	/	/	3.9
CCC(C)C(NC(=O)CCCNC(=O)CCC(=O)OC1O[C@H]2OC3(C)CC[C@H]4[C@H](C)CCC(C1C)C24OO3)C(=O)O (stereo partly specified)	i	-13.7	-49.4	33.4	/	-10.7	0.9	/	/
CC1CN(c2cc([N+](=O)[O-])ccc2Cl)CC(C)N1 (stereo unspecified)	i	16.9	14.5	4.3	0.67	-2.4	2.4	/	-6.6
CCOC(=O)C1(CCc2ccccc2)CCN(Cc2ccco2)CC1	i	0.9	-11.4	-4.0	0.697	-0.8	-1.6	-14.7%	-1.1
Cn1c(O)c(C=NC2C(=O)C3(C)CCC2C3(C)C)c(=O)n(C)c1=O (stereo unspecified)	/	/	/	/	0.695	/	-3.3	2.4%	/
Cc1[nH]c2ccccc2c1C(=O)CN1CC=C(c2ccccc2)CC1	i	6.4	6.8	3.7	0.694	11.0	-0.6	0.5%	-3.6
CCCCn1c(O)c(C(C)=NCC2CCCO2)c(=O)[nH]c1=O (stereo unspecified)	/	/	/	/	0.707	/	1.1	6.0%	/
C=C1C[C@]2(O)[C@@]3(C)CCC(=O)C(C)(C)C3=C(O)C(=O)[C@@]2(C)[C@@H]2C(=O)O[C@@](C)(C(=O)OC)C(=O)[C@@]12C	i	4.3	-1.8	-1.5	0.734	-1.3	1.7	20.7%	-16.8
O=C1C=C2c3ccccc3CC(C(=O)O)C2CC1 (stereo unspecified)	i	3.2	2.1	34.0	/	-3.6	0.3	/	/
C/C=C/c1ccc([C@H]2[C@H]3CN(C(=O)Cc4cccnc4)CCCCN3[C@H]2CO)cc1	i	-1.9	6.3	-0.5	/	-1.1	/	/	/
O=C1NCCCCC1(Cl)Cl	i	4.7	7.9	1.9	0.689	-6.5	2.6	-1.8%	/
O=C(CCc1ccccc1)N1C[C@H]2C[C@@H](C1)c1cccc(=O)n1C2	i	3.8	5.5	-6.7	0.696	-2.5	3.3	/	-8.5
CCOC(=O)c1cccc(C2=C(CNC(C)=O)[C@H]3CC[C@@H](C2)N3Cc2ccccc2)c1	i	6.7	6.7	-3.7	/	-2.4	0.2	-1.0%	/
Nc1ccccc1C(=O)OCC(=O)Nc1ccc(Br)cc1F	/	/	/	/	0.695	/	7.8	-4.6%	-6.9
CC(C)(C)c1cc(O)ccc1O	i	7.5	23.3	2.3	/	0.0	/	/	/
C[C@@H]1O[C@@H](O[C@H]2C[C@@H](O)[C@]3(CO)[C@@H]4C(CC[C@]3(O)C2)[C@@]2(O)CC[C@H](C3COC(=O)C3)[C@@]2(C)C[C@H]4O)[C@H](O)[C@H](O)[C@H]1O (stereo partly specified)	i	/	/	/	/	1.7	-3.9	/	-26.5
COC(/C(C)=C/C=C/C(C)=C/c1coc(C)n1)C(C)C1CC(O)C2(C)OC2C=CC(C)C2CC(CC(=O)O2)CC2OC2C(=O)O1 (stereo unspecified)	i	/	/	/	/	-2.4	-0.2	-0.4%	/
CC(C)(C)n1nnnc1C(c1cccc2ccccc12)N1CCC2(CC1)C(=O)NCN2c1ccccc1 (stereo unspecified)	i	17.4	8.6	1.3	/	1.5	-1.0	/	/
C[C@H](CO)N1C[C@H](C)[C@@H](CN(C)C(=O)Oc2cccc3ccccc23)OCc2cn(nn2)CCCC1=O	i	0.4&-0.5	9.9&2.1	0.1&-1.8	/	-1.8&-2.1&-1.0	-2.6	-3.1%	/
O=C(COc1ccc2ccccc2c1)N1CCN(CC2CC3C=CC2C3)CC1 (stereo unspecified)	/	/	/	/	0.699	/	1.5	4.3%	-13.6
CCOC(=O)c1c(N)n(CCN2CCOCC2)c2nc3ccccc3nc12	/	/	/	/	0.624	/	-2.6	4.9%	-14.8
CC1C(c2cccs2)=[N+]([O-])C(C)(C(=O)c2cccs2)N1O (stereo unspecified)	/	/	/	/	0.717	/	-1.2	/	54.6
COC(=O)C1=C(c2cc3ccccc3s2)C[C@@H]2CC[C@H]1N2C(=O)NCc1cccc2ccccc12	i	6.9	-0.1	0.6	/	5.4	2.6	/	-1.9
N#CC1c2ccccc2-n2nncc2CN1C(=O)CCc1ccccc1 (stereo unspecified)	i	9.9	15.5	5.0	/	2.7	1.4	/	/
CC(=O)NC1C(OC(=O)Cc2ccccc2)OC(COC(C)=O)C(OC(C)=O)C1OC(C)=O (stereo unspecified)	i	16.2	10.3	0.9	0.7	-2.6	0.3	-4.3%	-2.2
COc1cc(OC)c(OC)cc1CNC(C)C(O)c1ccccc1 (stereo unspecified)	/	/	/	/	0.61	/	-0.9	0.2%	-2.8
C/C(=N\N1CCCCC1)c1c(O)[nH]c(=O)[nH]c1=O	/	/	/	/	0.656	/	-2.5	/	1.0
CCN(CC)P(=S)(c1c(C)nc2ccccn12)c1c(C)nc2ccccn12	i	-34.1	-48.5	-8.0	0.713	-3.2	-1.6	74.1%	3.2
COC(=O)C1=C(c2ccc3ccccc3c2)C[C@@H]2CC[C@H]1N2C(=O)NC(C)C	i	-8.8	-7.3	12.9	/	2.8	0.3	/	5.9
COC(=O)C1=C(c2cccc(OCc3ccccc3)c2)C[C@@H]2CC[C@H]1N2C(=O)NCCCc1ccccc1	i	13.5	13.3	-6.0	/	0.9	-3.3	/	1.4
O=C(NC(=S)Nc1ccc(S(=O)(=O)Nc2nccs2)cc1)c1ccc(F)c(F)c1	/	/	/	/	0.685	/	1.0	/	15.7
CCOc1cc2c(cc1OCC)-n1cccc1C(c1c(O)cccc1OC)NC2 (stereo unspecified)	i	-6.6	-4.2	0.1	0.654	?	1.5	-1.2%	9.5
COc1ccc2c3c([nH]c2c1)C(C)NCC3 (stereo unspecified)	i	/	/	/	0.649	30.3*	42.3*	7.2%	-2.5
COc1ccc(CCN(C)Cc2ccncc2)cc1OC	i	15.6	3.3	-8.3	0.74	-14.5	0.5	3.0%	-4.8
Fc1cccc(CCNCc2ccccn2)c1	/	/	/	/	0.697	/	5.2	2.5%	2.2
COC(=O)C1=C(C)OC(N)=C(C#N)C12C(=O)Nc1ccccc12 (stereo unspecified)	i	15.6	14.4	2.1	0.709	0.1	1.7	-4.0%	/
COc1cc(/C=C2\C(=O)NC(=O)N(c3ccc(C)cc3)C2=O)cc(OC)c1O	i	-0.4	-7.7	1.1	0.687	-2.9	2.2	18.2%	42.3
C#CCN(C)[C@H](C)Cc1ccccc1	i	9.6	13.5	0.8	/	-4.2	0.8	-3.9%	-2.2
CCn1c(C)c(C(=O)O)c2cc(OC)ccc21	/	/	/	/	0.776	/	0.1	18.2%	-1.0
Cc1cc(/C=C2\C(=O)NC(=O)N(Cc3ccccc3Cl)C2=O)c(C)n1-c1ccc(C(=O)O)cc1	i	23.8	15.3	10.8	0.675	2.9	-16.6	/	32.3

Whole records as entered above:
`COc1ccc(CCN(C)Cc2ccncc2)cc1OC` in the list: FGF22 binding = i; Ecoli rRNA inh = 15.6; Ecoli rRNA inh OD600 = 3.3; Ecoli rRNA inh RFP = -8.3; Ecoli growth = 0.74; AF4-AF9 inh = -14.5; HNF4A DNA FP = 0.5; Vif A3G = 3.0%; ALR H2O2 inh = -4.8
`FCCN(CCF)c1cccc(Cl)c1` in the list: FGF22 binding = i; Ecoli rRNA inh = 9.8; Ecoli rRNA inh OD600 = 9.1; Ecoli rRNA inh RFP = 0.7; Ecoli growth = 0.667; AF4-AF9 inh = -4.0; HNF4A DNA FP = /; Vif A3G = /; ALR H2O2 inh = 3.9

Remaining list, next part.
SMILES	FGF22 binding	Ecoli rRNA inh	Ecoli rRNA inh OD600	Ecoli rRNA inh RFP	Ecoli growth	AF4-AF9 inh	HNF4A DNA FP	Vif A3G	ALR H2O2 inh
CCCCn1nnnc1C(C1CC1)N1CCC2(CC1)C(=O)NCN2c1ccccc1 (stereo unspecified)	i	-0.1	5.5	-2.6	/	-1.8	6.4	/	/
O=C(N/N=C/c1c(O)n(C2CC2)c(=S)[nH]c1=O)c1ccccc1Cl	i	3.2	12.1	0.5	0.659	-0.9	-1.5	/	?
CCCC1=C(C(=O)OCC)C2(C(=O)Nc3ccc(C)cc32)C(C#N)=C(N)O1 (stereo unspecified)	/	/	/	/	0.726	/	5.8	-3.4%	-11.7
O=C(NCC1=C(c2ccc3ccccc3c2)C[C@@H]2CC[C@H]1N2Cc1ccco1)c1ccncc1	i	4.2	1.6	-5.5	/	10.5	1.4	-0.7%	/
CCN1C(=O)/C(=C/c2ccc(N(CC)CC)cc2OC)C(=O)NC1=S	/	/	/	/	0.766	/	4.0	/	18.7
CCCCn1nnnc1C(CCSC)N1CCC2(CC1)C(=O)NCN2c1ccccc1 (stereo unspecified)	i	-19.4	-22.1	-5.5	/	3.1	4.5	/	/
Cc1ccccc1CC(=O)N(CCN(C)C)CC1CCCN(Cc2ccccc2F)C1 (stereo unspecified)	i	3.0	3.3	0.5	0.644	7.4	3.5	/	/
O=C(NC1CCCCC1)N1C[C@H]2C[C@@H](C1)c1cccc(=O)n1C2	i	14.7	11.6	-0.6	0.673	-5.2	0.0	7.0%	0.1
CN/C=C(/Cl)P(=O)(OC(C)C)OC(C)C	i	2.5	18.0	1.3	0.699	-2.7	-0.9	/	-0.8
CC(=O)c1ccc2c(c1)C1C(Cl)C(Sc3ccccc3[N+](=O)[O-])CC1C(c1ccccc1)N2 (stereo unspecified)	/	/	/	/	0.737	/	5.2	4.0%	-0.5
COC(=O)C1=C(c2ccccc2)C[C@@H]2CC[C@H]1N2C(=O)NC(C)C	i	7.3	0.2	-1.3	/	-1.6	1.9	/	/
CC(C)c1ccc(N2C(=O)NC(=O)/C(=C/C=C/c3ccco3)C2=O)cc1	/	/	/	/	0.642	/	65.6*	?	/
Cc1cc(OCC(=O)NC2CCS(=O)(=O)C2)c2c3c(c(=O)oc2c1)CCC3 (stereo unspecified)	/	/	/	/	0.662	/	-0.1	-11.2%	/
CN1C(=O)C(=Cc2ccc(OCC(=O)Nc3ccccc3)cc2)C(=O)N(C)C1=O	/	/	/	/	0.666	/	2.9	/	62.2
Cc1cccc(CN(C)C)c1OC(=O)N(C)C	/	/	/	/	0.658	/	-2.1	7.7%	-1.7
COc1ccc(-c2nn(CCC#N)cc2C(=O)Nc2ccc(C(C)=O)cc2)cc1[N+](=O)[O-]	i	17.2	18.1	-1.2	0.715	-1.7	-1.2	/	-4.5
O=C1CN=C(c2ccccc2Cl)c2cc(Br)ccc2N1	i	-5.0	0.0	-2.6	0.642	-1.2	3.6	/	-5.0
CC1=C(C(=O)OC(C)C)[C@]2(C(=O)N(CC(N)=O)c3ccccc32)C(C#N)=C(N)O1	/	/	/	/	0.693	/	2.1	12.0%	-2.5
N=c1ccccn1Cc1ccccc1	i	7.2	0.0	-6.1	0.663	1.2	-0.1	/	-3.0
CCC(=O)CC(c1ccc([N+](=O)[O-])cc1)c1c(O)c2ccccc2oc1=O (stereo unspecified)	/	/	/	/	0.691	/	-1.6	-1.5%	-0.6

Screening data (PubChem BioAssay)

A portion of the library; count on the stated rates, not on these rows.
